# From PubChem BioAssay
# Ecoli rRNA inh – selective bacterial rRNA inhibition in E. coli | E. coli WT GFP vs humanized-ribosome RFP mutants, fluorescence, 24 h; stronger effect = lower value; DMSO median 0, no signal -100 | GFP signal change (wild-type ribosome), % (no concentration beside the values) | 350,000 compounds, 1.6% hits | AID 720706;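 active means significant combined selectivity score with lowered wild-type GFP, culture density cut under 30%, mutant RFP and density less affected; inactive means any of these conditions unmet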; further: one replicate is shown; some compounds called inactive have numbers as strong as hits
# MLL AF4-AF9 inh – MLL-AF4/AF9 protein interaction inhibition; P42568; AlphaScreen, biotin-AF4 peptide binding to FLAG-AF9; inhibition, % at 10 µM; 350,000 compounds, 0.47% hits; AID 651704;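 active means every replicate reaching a set inhibition limit, whatever the replicate mean, cut at about 25% in these data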;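 further: 0% = plate neutral control median and 100% = total signal loss; the record names both 10 and 1 µM as test concentration; the first replicate is given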
# Target sequence (P42568 whole entry, looked up): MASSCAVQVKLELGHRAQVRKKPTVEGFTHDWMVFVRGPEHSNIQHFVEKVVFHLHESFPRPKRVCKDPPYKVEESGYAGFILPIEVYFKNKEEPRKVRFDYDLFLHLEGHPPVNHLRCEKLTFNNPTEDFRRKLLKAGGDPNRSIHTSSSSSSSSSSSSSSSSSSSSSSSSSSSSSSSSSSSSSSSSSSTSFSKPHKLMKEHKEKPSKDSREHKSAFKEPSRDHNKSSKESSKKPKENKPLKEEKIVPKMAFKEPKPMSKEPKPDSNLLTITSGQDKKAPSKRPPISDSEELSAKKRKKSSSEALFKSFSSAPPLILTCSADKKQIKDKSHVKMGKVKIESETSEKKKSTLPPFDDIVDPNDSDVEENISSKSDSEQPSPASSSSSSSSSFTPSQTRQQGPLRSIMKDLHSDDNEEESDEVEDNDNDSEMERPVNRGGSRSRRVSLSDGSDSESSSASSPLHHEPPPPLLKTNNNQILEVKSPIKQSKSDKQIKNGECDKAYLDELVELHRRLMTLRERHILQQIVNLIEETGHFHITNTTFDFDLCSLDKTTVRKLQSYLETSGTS
# Ecoli rRNA inh OD600 – also measured in Ecoli rRNA inh; calls as there; OD600 change, %; measured here: OD600 growth;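 optical density of the mix in the first replicate; 0 = DMSO median and -100 = no signal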
# Ecoli rRNA inh RFP – second read-out of Ecoli rRNA inh, no call of its own (marks repeat the call); RFP signal change, %; measured here: RFP humanized mutant strains;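 first replicate; 0 = DMSO median and -100 = no signal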
# The depositor's hits bear a star. The list is partial; count on the stated rates, not on these rows.
# Sample of the layout:
Ecoli rRNA inh	Ecoli rRNA inh OD600	Ecoli rRNA inh RFP	MLL AF4-AF9 inh	SMILES
1.1	3.8	-1.5	6.0	CCC(=O)Nc1ccc2c(c1)OC[C@@H](C)N(C(=O)c1cnccn1)C[C@@H](C)[C@@H](OC)CN(C)C2=O
-4.0	-4.9	2.1	6.2	CN1C(=O)c2cc(NC(=O)c3ccc(F)c(F)c3)ccc2OC[C@@H]2O[C@@H](CC(=O)N[C@H]3CCN(Cc4ccccc4)C3)CC[C@@H]21
4.3	11.3	-1.2	0.7	COc1ccccc1C(=O)N1C[C@H]2[C@@H](c3ccccc31)[C@H](CO)N2C(=O)C1CC1
-11.1	4.8	1.4	3.9	COc1ccccc1CN1C[C@@H]2N[C@H](C1)C2c1ccc(-c2ccc(C(=O)N(C)C)cc2)cc1 (some centres not stated)
-17.8	-12.2	0.2	9.8	CCN(CC(=O)Nc1ccc(C#N)cc1)CC(=O)Nc1ccc2c(c1)OCCO2
3.1	-48.0	24.6	6.3	O=C(Nc1ccccc1F)N1CC(=O)N2[C@@H](CO)[C@H](c3ccc(C#CC4CCCC4)cc3)[C@@H]2C1

# The listing (from the top)
Ecoli rRNA inh	Ecoli rRNA inh OD600	Ecoli rRNA inh RFP	MLL AF4-AF9 inh	SMILES
1.1	3.8	-1.5	6.0	CCC(=O)Nc1ccc2c(c1)OC[C@@H](C)N(C(=O)c1cnccn1)C[C@@H](C)[C@@H](OC)CN(C)C2=O
-4.0	-4.9	2.1	6.2	CN1C(=O)c2cc(NC(=O)c3ccc(F)c(F)c3)ccc2OC[C@@H]2O[C@@H](CC(=O)N[C@H]3CCN(Cc4ccccc4)C3)CC[C@@H]21
4.3	11.3	-1.2	0.7	COc1ccccc1C(=O)N1C[C@H]2[C@@H](c3ccccc31)[C@H](CO)N2C(=O)C1CC1
-11.1	4.8	1.4	3.9	COc1ccccc1CN1C[C@@H]2N[C@H](C1)C2c1ccc(-c2ccc(C(=O)N(C)C)cc2)cc1 (some centres not stated)
-17.8	-12.2	0.2	9.8	CCN(CC(=O)Nc1ccc(C#N)cc1)CC(=O)Nc1ccc2c(c1)OCCO2
3.1	-48.0	24.6	6.3	O=C(Nc1ccccc1F)N1CC(=O)N2[C@@H](CO)[C@H](c3ccc(C#CC4CCCC4)cc3)[C@@H]2C1
1.6	12.1	-1.1	-4.6	O=C(c1ccncc1)N1CC(=O)N2[C@@H](CO)[C@H](c3ccc(-c4cccnc4)cc3)[C@@H]2C1
4.9	-18.3	-0.7	3.8	CCC(=O)N1CC(=O)N2[C@H](CO)[C@@H](c3ccc(C#CC4CCCC4)cc3)[C@@H]2C1
-3.8	-2.5	-1.0	-2.2	COc1cccc(NC(=O)N2CC(=O)N3[C@H](CO)[C@H](c4ccc(Br)cc4)[C@H]3C2)c1
-51.7	-76.3	-9.1	3.2	CCCNC(=O)N1CC(=O)N2[C@H](C1)[C@H](c1ccc(C#CCC3CCCC3)cc1)[C@@H]2CO
1.9	0.2	0.8	0.8	CC(=O)N1[C@@H]2c3ccc(-c4ccccc4)c(=O)n3C[C@@H]2[C@@H](CO)[C@@H]1C(=O)NCc1ccccc1F
-33.7	-56.0	12.1	0.9	O=C(C1CCCC1)N1CC(=O)N2[C@H](CO)[C@H](c3ccc(C#CC4CCCC4)cc3)[C@H]2C1
-1.6	-1.2	0.3	-0.7	C[C@@H]1CN([C@@H](C)CO)C(=O)c2cc(-c3ccc(C#N)cc3)cnc2O[C@H]1CN(C)C(=O)c1ccccc1
-0.8	-10.1	-0.3	0.8	CO[C@@H]1CN(C)C(=O)c2ccc(NS(C)(=O)=O)cc2OC[C@H](C)N(C(=O)C2CCCCC2)C[C@@H]1C
-56.5	-69.0	-3.8	-1.9	O=C(C1CCCCC1)N1CC(=O)N2[C@@H](CO)[C@@H](c3ccc(C#Cc4cccc(F)c4)cc3)[C@@H]2C1
-5.8	9.4	-5.1	-0.1	N#C[C@H]1[C@@H](c2ccccc2C2=CCCC2)[C@H](CO)N1C(=O)CN1CCOCC1
2.4	8.2	0.6	-2.0	CNC[C@@H]1Oc2cc(-c3ccncc3)ccc2S(=O)(=O)N([C@@H](C)CO)C[C@H]1C
1.4	4.5	-0.4	-4.8	Cc1ccc(S(=O)(=O)Nc2ccc3c(c2)C(=O)N([C@@H](C)CO)C[C@H](C)[C@@H](CN(C)Cc2ccc(C(=O)O)cc2)OCCCC[C@H](C)O3)cc1
3.1	16.2	0.6	2.5	O=C(C[C@H]1C[C@@H]2c3cc(NC(=O)NC4CCCCC4)ccc3O[C@@H]2[C@H](CO)O1)NC1CCCCC1
1.1	-2.0	0.4	-0.7	CN(C)C(=O)C[C@@H]1C[C@@H]2c3cc(NC(=O)C4CCC4)ccc3O[C@@H]2[C@@H](CO)O1
-2.7	-9.3	3.9	-0.7	C[C@H]1CN([C@@H](C)CO)C(=O)Cc2cc(NC(=O)NC3CCCCC3)ccc2O[C@H]1CN(C)CC1CCCCC1
-3.3	-34.0	29.6	-2.2	O=C(c1ccc2c(c1)OCO2)N1CC(=O)N2[C@H](CO)[C@@H](c3ccc(C#Cc4ccccc4)cc3)[C@@H]2C1
11.0	6.3	-0.3	-2.2	COc1ccc(CCNC(=O)CN2c3cccc4cccc(c34)S2(=O)=O)cc1
1.2	4.9	-0.5	-1.7	CC(C)C(=O)Nc1ccc2c(c1)C(=O)N(C)[C@@H]1CC[C@H](CC(=O)O)O[C@H]1CO2
-2.4	7.0	-2.8	1.5	C/C=C/c1ccc([C@@H]2[C@@H](CO)N3C(=O)CN(C(=O)c4ccc(F)cc4)C[C@H]23)cc1
-0.3	-30.4	8.2	2.3	O=C(c1cnccn1)N1CC(=O)N2[C@H](CO)[C@H](c3ccc(C#CCC4CCCC4)cc3)[C@@H]2C1
-1.3	7.1	-3.0	2.1	CN(C)C(=O)c1cccc(-c2ccc3c(c2)[C@@H]2[C@@H](CCN2C(=O)C2CCC2)[C@@H](CO)N3)c1
1.2	0.5	4.7	-3.0	O=C(c1cc2c(c(-c3cccc(Br)c3)n1)[C@H](CCO)NC2)N1CCCCC1
3.5	9.4	0.3	-1.5	C[C@H]1CN([C@@H](C)CO)C(=O)c2cc(C#CCN(C)C)cnc2O[C@@H]1CN(C)S(=O)(=O)c1ccccc1
-0.7	-4.8	1.7	-1.7	COc1ccc(CN2CC3(CN(C(=O)c4ccccc4)C3)c3c([nH]c4cc(OC)ccc34)[C@H]2CO)cc1
-1.6	1.7	1.9	1.9	CC=Cc1ccc2n(c1=O)C[C@H]1[C@H](CO)[C@@H](C(=O)NC3CCC3)N(CCC)[C@@H]21 (mixture of isomers)
1.6	7.5	-1.0	-4.9	C[C@@H]1CCCCO[C@H](CN(C)C(=O)c2ccccc2)[C@H](C)CN([C@H](C)CO)C(=O)c2cc(NS(=O)(=O)c3cn(C)cn3)ccc2O1
-1.8	4.0	1.2	26.2*	COc1ccc2c3c(n(C)c2c1)[C@H](CO)N(C(=O)C1CC1)CC31CCN(Cc2cccc(F)c2)CC1
-34.7	-43.6	-8.7	1.5	O=C(COc1ccccc1F)N1N=C(c2cccs2)CC1c1ccco1 (configuration not stated)
-1.7	-55.5	27.8	0.2	O=C(c1ccc(F)cc1)N1CC(=O)N2[C@H](CO)[C@@H](c3ccc(-c4ccccc4F)cc3)[C@H]2C1
-1.2	0.4	-4.5	-2.3	O=C([C@@H]1[C@@H](CO)[C@@H]2Cn3c(ccc(C4=CCCC4)c3=O)[C@H]1N2)N1CCCCC1
-4.6	-5.3	0.4	2.5	COc1ccc(S(=O)(=O)N(C)C[C@@H]2OCCCC[C@H](C)Oc3ccc(N(C)C)cc3C(=O)N([C@@H](C)CO)C[C@H]2C)cc1
3.2	17.2	0.3	4.9	CNC[C@@H]1Oc2ncc(C#Cc3cccc(F)c3)cc2C(=O)N([C@H](C)CO)C[C@@H]1C
-6.3	7.3	0.8	6.6	C/C=C/c1ccc2c(c1)[C@H]1[C@H](CCN1C(=O)c1ccc3c(c1)OCO3)[C@H](CO)N2
-1.7	-8.1	13.7	10.7	O=C(C1CCCC1)N1CC[C@@H]2[C@H]1c1cc(C3=CCCCC3)ccc1N[C@@H]2CO
1.8	3.6	-2.3	-1.4	CCS(=O)(=O)Nc1ccc2c(c1)C(=O)N(C)C[C@H](OC)[C@@H](C)CN(C(=O)C1CCC1)[C@H](C)CO2
-1.0	23.6	-2.9	12.5	Cc1cccc(-c2ccc([C@@H]3[C@H](CO)N4C(=O)CN(C(=O)c5cccnc5)C[C@@H]34)cc2)c1
1.9	15.3	-7.0	-2.9	COCC#Cc1ccc([C@@H]2[C@@H](CO)N3C(=O)CN(C(=O)C4CCC4)C[C@H]23)cc1
-6.9	-3.9	2.2	0.8	CNC(=O)C[C@H]1CC[C@@H]2[C@H](COc3ccc(NC(=O)Nc4ccc(F)c(F)c4)cc3C(=O)N2C)O1
0.4	-0.4	-2.0	6.7	C[C@H](CO)N1C[C@H](C)[C@H](CN(C)C(=O)NC2CCCCC2)Oc2ccc(NC(=O)c3ccncc3)cc2CC1=O
-11.7	-35.7	-4.1	0.5	O=C(C1CCCC1)N1CC2(C1)[C@H](c1ccccc1)[C@@H](CO)N2Cc1ccc(Cl)cc1
-4.6	-2.1	4.6	-0.9	CN1C(=O)c2cc(NC(=O)c3ccno3)ccc2OC[C@H]2O[C@@H](CC(=O)NCC(F)(F)F)CC[C@@H]21
-3.6	-34.4	22.2	3.9	CNC[C@H]1[C@@H](c2ccc(C#CCC3CCCC3)cc2)[C@@H](CO)N1C(=O)C1CCC1
4.2	3.7	2.2	1.5	O=C1CN(Cc2ccc(F)cc2)C[C@@H]2[C@H](c3ccc(-c4ccccc4F)cc3)[C@@H](CO)N12
-4.2	-2.7	8.5	0.6	CO[C@@H]1CN(C)C(=O)c2cc(NS(=O)(=O)c3ccc(C)cc3)ccc2OC[C@@H](C)N(Cc2nccs2)C[C@H]1C
-1.4	-2.2	4.1	-2.1	O=C(Nc1ccccc1)N1CC(=O)N2[C@H](CO)[C@H](c3ccc(C#Cc4cccnc4)cc3)[C@@H]2C1
-1.3	-1.5	-0.5	-0.3	CC(=O)Nc1ccc(C(=O)COC(=O)C2CC2C)c(F)c1 (configuration not stated)
-4.2	-54.0	30.3	1.0	COc1ccccc1NC(=O)N1CC(=O)N2[C@H](CO)[C@@H](c3ccc(-c4ccc(F)cc4)cc3)[C@@H]2C1
2.8	16.1	-3.0	2.1	O=C(C1CCOCC1)N1CC(=O)N2[C@H](CO)[C@@H](c3ccc(-c4ccccc4F)cc3)[C@H]2C1
2.7	25.5	-3.8	-3.8	CCCC#Cc1cnc2c(c1)C(=O)N([C@H](C)CO)C[C@@H](C)[C@H](CN(C)C(=O)CCN1CCCCC1)O2
1.9	7.0	-0.6	0.2	COCCNC(=O)C[C@@H]1C[C@H]2c3cc(NC(=O)COC)ccc3O[C@H]2[C@H](CO)O1
3.6	-5.2	2.0	-2.3	CN(C)C(=O)c1ccc(-c2ccccc2[C@@H]2[C@@H](CO)N(C(=O)C3CC3)[C@H]2C#N)cc1
-0.2	9.3	1.3	-2.6	CC(=O)N[C@H]1CC[C@H](CCNC(=O)C2CCCCC2)O[C@@H]1CO
3.8	12.4	2.1	-2.0	COc1ccccc1-c1ccccc1[C@@H]1[C@@H](CO)N(C(=O)CN(C)C)[C@H]1C#N
-1.7	-5.4	13.8	5.8	CCCCC(=O)Nc1cc(OC)c(NC(=S)Nc2ccc(OC)cc2)cc1OC

# Copied from the listing, 2 compounds:
Ecoli rRNA inh	Ecoli rRNA inh OD600	Ecoli rRNA inh RFP	MLL AF4-AF9 inh	SMILES
4.2	3.7	2.2	1.5	O=C1CN(Cc2ccc(F)cc2)C[C@@H]2[C@H](c3ccc(-c4ccccc4F)cc3)[C@@H](CO)N12
-4.2	-2.7	8.5	0.6	CO[C@@H]1CN(C)C(=O)c2cc(NS(=O)(=O)c3ccc(C)cc3)ccc2OC[C@@H](C)N(Cc2nccs2)C[C@H]1C

# (list continues)
Ecoli rRNA inh	Ecoli rRNA inh OD600	Ecoli rRNA inh RFP	MLL AF4-AF9 inh	SMILES
-0.7	9.7	-1.4	10.3	COc1ccc2c3c([nH]c2c1)[C@@H](CO)NCC31CCN(C(=O)Nc2ccccc2F)CC1
1.6	9.3	0.1	-3.8	CCC(=O)N1CC(=O)N2[C@@H](CO)[C@@H](c3ccc(C#Cc4cccc(F)c4)cc3)[C@@H]2C1
2.9	8.3	-2.4	-3.8	COCC(=O)N1CC(=O)N2[C@H](CO)[C@@H](c3ccc(-c4cccnc4)cc3)[C@@H]2C1
3.9	-3.3	-1.7	-1.7	Cc1ccccc1S(=O)(=O)N1CC(=O)N2[C@H](CO)[C@H](c3ccc(C#CCC4CCCC4)cc3)[C@@H]2C1
1.2	12.0	-2.4	-0.9	CC(C)NC(=O)N1CC(=O)N2[C@H](C1)[C@@H](c1ccc(C#CCN(C)C)cc1)[C@@H]2CO
-16.2	-29.6	-5.3	0.8	COc1cccc(-c2ccccc2[C@H]2[C@@H](C#N)N(C(=O)Cc3ccccc3)[C@@H]2CO)c1
2.9	0.1	-0.2	-0.9	Cc1ccc(S(=O)(=O)Nc2ccc3c(c2)C(=O)N([C@H](C)CO)C[C@H](C)[C@@H](CN(C)C(=O)C2CCCCC2)OCCCC[C@@H](C)O3)cc1
13.3	15.7	5.6	-13.3	O=C1CC(SC(=S)C2CCCC2=O)C(=O)N1 (configuration not stated)
-1.1	-1.5	1.7	-2.4	C[C@@H]1CN([C@@H](C)CO)C(=O)CCCn2cc(nn2)CO[C@@H]1CN(C)S(=O)(=O)c1ccc(Cl)cc1
3.3	12.1	-0.7	-4.6	CCCC#Cc1ccc([C@H]2[C@@H](CO)N3C(=O)CN(C(=O)NCCC)C[C@@H]23)cc1
